# Menin-MLL FL inh – menin-MLL binding inhibition, fluorescein peptide | 290,000 tested, under 10 active | AID 1766 | Fluorescence polarization, fluorescein-MLL peptide displacement from menin | FP activity change, % at 61.4 µM; inconclusive = falling polarisation curve, or a change in total fluorescence; inactive = total fluorescence flat and polarisation flat or rising; no compound was filed as active; the % refers to the polarisation; negative = inhibition;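 further: % of control where 0% means no effect; inhibitors lower the polarisation; unlabelled MLL peptide was the positive control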
# gsp antag – antagonizes gsp, the McCune-Albright syndrome mutation. gsp-mutant cells, cAMP HTRF, 30 min; control for the full effect not named in the record. Potency, µM (titrated, usually from 76.9 µM), for inactives: top-dose activity change, negative = inhibition, hits mostly inhibitors. 340,000 tested, 0.4% active. AID 624288; active = falling curve of any shape with a large fitted effect; inconclusive = falling curve, mostly with a smaller effect; inactive = flat or rising curve; cell line not stated here;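 further: intracellular cAMP measured with PDE inhibitor Ro 20-1724 present during compound exposure; potency means the concentration at half of the fitted maximal effect; on the % scale 0 is the no-effect control and ±100 the full control effect; nearly all actives have a fitted effect of over 65% in size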
#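 Cells, 2000/well, grown 16–24 h in DMEM 10% FBS with 0.5 mg/ml G418, then compounds plus […] (300 uM addition stock), 30 min at 37C. cAMP read by HTRF (cAMP-d2 and anti-cAMP antibody-K in lysis buffer) after 30 min RT.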
# gsp agonist – activates gsp, the McCune-Albright syndrome mutation. gsp mutant cells, cAMP HTRF, 30 min; control for the full effect not named in the record. Potency, µM (top dose mostly 76.9 µM), for the others: at the top dose activation (cAMP increase), most hits filed as activators. 340,000 tested, 0.13% active. AID 624287; active = well fitted activation curve with a large enough effect; inconclusive = small, poorly fitted or top-dose-only effect, or another doubt; inactive = no such curve, though single readings can be large or run the other way; cell line not stated here;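 further: phosphodiesterase inhibitor Ro 20-1724 added with compounds to block cAMP breakdown; potency means the concentration at half of the fitted maximal effect; nearly all actives have a fitted effect of over 60% in size; about a fifth of the inactives were tested at one dose only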
#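 Cells stably selected in G418 were plated at 2000/well, grown 16-24 hr, then given compounds in DMSO with the PDE inhibitor […] (300 uM solution added) for 30 min at 37C; cAMP was read by HTRF.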
# ClpP mod – qHTS Assay for Activators of ClpP. ATP-dependent Clp protease proteolytic subunit (Bacillus subtilis (strain 168)), P80244. purified B. subtilis ClpP, FRET peptide cleavage, 20 min. Potency, µM (highest dose often 57.5 µM), without a hit: top-dose activity change, negative = active. 340,000 tested, 1.9% active. AID 651965, 2013; active = well fitted falling curve with a large enough effect; inconclusive = small, poorly fitted or top-dose-only effect; inactive = no such curve, though single readings can be large or run the other way; further: potency means the concentration at half of the fitted maximal effect; the source files actives as falling curves though it sought activators and does not explain the sign; nearly all actives have a fitted effect of over 65% in size; many hits overshoot -100%
# Target sequence (P80244 whole entry, looked up): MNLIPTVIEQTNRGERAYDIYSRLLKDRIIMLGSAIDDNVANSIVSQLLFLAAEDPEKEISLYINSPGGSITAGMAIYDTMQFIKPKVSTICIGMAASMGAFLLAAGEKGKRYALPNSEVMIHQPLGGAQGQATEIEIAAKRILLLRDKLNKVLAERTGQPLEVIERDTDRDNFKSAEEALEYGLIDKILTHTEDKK
#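 Buffer: 100 mM Tris/HCl pH8, 100 mM KCl, 0.05% low protease BSA, 2.5% glycerol, 0.01% Tween-20. ClpP 10 microg/mL final; 20 min RT; delta FRET normalized to ADEP and DMSO controls.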
# Sfp inh – Sfp phosphopantetheinyl transferase inhibition; Q9F4F7; Biochemical Sfp PPTase activity, qHTS; Potency, µM, for the others: max response, negative = inhibition, actives largely listed as inhibitors; 310,000 tested, 3.5% active; AID 1490; active means well fitted inhibition curve with a large enough effect; inconclusive means small, poorly fitted or top-dose-only effect, or another doubt; inactive means no such curve, though single readings can be large or run the other way;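 further: the enzyme is Sfp with the accession as filed and its product quenches rhodamine fluorescence; potency means the concentration at half of the fitted maximal effect; 0% = enzyme reaction without inhibitor and -100% = no enzyme wells; top concentration of the series not given in the record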
#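 Compounds were incubated with enzyme (final 15 nM) for 15 min at room temperature before substrate addition started the reaction. Fluorescence at 525 nm excitation, 598 nm emission was recorded immediately and after 30 minutes.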
# D2 ag – activates the human D2 dopamine receptor. P14416. DiscoveRx PathHunter D2 beta-arrestin, luminescence, 90 min; 100% = 57 uM dopamine signal. activation, % (concentration not given with the values). 360,000 tested, 0.084% active. AID 624465; in the data active = activation above about 40%; inconclusive = about 15% to 40%; inactive = below about 15%; further: compound concentration not given in the record; the text of the record calls up to 30% inactive
# Target sequence (P14416 whole entry, looked up): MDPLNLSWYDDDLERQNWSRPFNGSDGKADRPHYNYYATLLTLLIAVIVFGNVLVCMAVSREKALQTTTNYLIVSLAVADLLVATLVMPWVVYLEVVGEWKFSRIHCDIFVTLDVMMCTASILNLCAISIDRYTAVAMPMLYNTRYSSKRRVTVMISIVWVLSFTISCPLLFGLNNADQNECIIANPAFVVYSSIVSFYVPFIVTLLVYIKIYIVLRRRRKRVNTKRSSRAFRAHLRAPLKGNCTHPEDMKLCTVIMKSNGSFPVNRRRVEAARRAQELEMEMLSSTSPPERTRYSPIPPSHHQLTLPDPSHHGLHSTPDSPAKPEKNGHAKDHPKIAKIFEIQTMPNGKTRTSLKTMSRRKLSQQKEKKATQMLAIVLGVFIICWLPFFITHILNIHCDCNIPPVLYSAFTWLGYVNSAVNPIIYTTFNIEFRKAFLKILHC
#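 DiscoveRx PathHunter D2 beta-arrestin cells (2,100/well) attached overnight, then compound-stimulated 90 min at 37 C in HBSS/10 mM HEPES/0.1% Tween-20 buffer; beta-galactosidase complementation read by luminescence after 1 h at ambient temperature. Dopamine 57 uM final (EC100) as control.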
# PINK1 modulator – changes PINK1 expression; PINK1 immunofluorescence, high-content cytometry, 24 h; Potency, µM (doses to about 76.6 µM), without a hit: at the top dose activation (PINK1 increase), most hits filed as activators; 410,000 tested, 0.2% active; active = well fitted activation curve with a large enough effect; inconclusive = small, poorly fitted or top-dose-only effect; inactive = flat fitted curve, though single readings scatter; cell line not stated here;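 further: potency means the concentration at half of the fitted maximal effect; % of control where 0% means no effect; nearly all actives have a fitted effect of over 65% in size; a mitochondrial uncoupler was the plate control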
#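 PINK1 protein level read as immunofluorescence by microplate cytometer in a fixed, stained stable cell line after 24 h exposure to five compound concentrations, with CCCP as control.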
# * marks the source's active call; other numbers are inactive results; ? = inconclusive; · = no result given; & = joins results of further samples; [ ] = dose if it differs, or a comment. An unsorted share of the library; overall some 5.1% were active at least once.
# Fields: D2 ag	PINK1 modulator	gsp agonist	Sfp inh	ClpP mod	gsp antag	Menin-MLL FL inh
Cc1ccc(Cl)cc1NC(=S)N(Cc1cccnc1)Cc1ccccc1Cl
 : 6.6	0.3%	6%[15.4 µM]	-13%	-6.0%	?	3.0
C=CCOc1ccc(Cl)cc1-c1noc(-c2csc([C@H]3C[C@H](O)[C@@H](CO)O3)n2)n1
 : 4.0	0.7%	·	·	-1.2%	·	·
Cc1nc(C(=O)NC(C)C)nn1-c1cc(Cl)cc(Cl)c1
 : -2.6	-0.2%	-5%[15.4 µM]	10%	·	1%	-1.0
CCCn1cnc2c(N)c(C)c(C)cc21
 : -0.6	-1.5%	?	7%	-0.3%	-7%	-0.2
Cc1ccc(C(=O)NCCNC(=O)c2ccc(C)o2)o1
 : -1.0	0.4%	1%	20%	0.6%	0%	-0.3
O=C1CC(c2ccc(S(=O)(=O)N3CCN(c4ccccc4)CC3)cc2)CN1 (configuration not stated)
 : 0.2	·	-8%	4%	-0.7%	2%	-0.5
Cc1ccc(NC(=O)Cn2nc(-c3ccco3)ccc2=O)cc1Cl
 : -0.5	1.5%	-61%[inhibitor]	?	-10%	5%	-0.7
CC(C)COn1c(=S)[nH]c2ccccc2c1=O
 : -3.1	2.4%[38.3 µM]	-13%	-9%	-0.3%	-6%	0.5
Cc1ccc(N2CC(C(=O)NCc3nnnn3-c3ccc(C)c(C)c3)CC2=O)cc1 (configuration not stated)
 : -2.6	-1.6%&1.0%	0%	3%	-0.2%&-1.6%	-5%	0.1
CC(=O)Nc1cccc(Oc2nc(C(F)(F)F)nc3ccccc23)c1
 : -4.3	3.4%	7%	13%	·	-1%	-0.9
COC(=O)C(NS(=O)(=O)c1ccc(N2CCCC2=O)cc1)c1ccccc1 (configuration not stated)
 : -1.9	-0.2%	6%	1%	-0.6%	4%	·
O=C(COC(=O)COc1ccccc1F)NC1CC1
 : -1.2	0.0%	-3%	·	-0.2%	6%	·
COc1ccc(CCN(C)CCN2C(=O)c3ccccc3C2=O)cc1OC
 : -2.1	2.7%	-36%[inhibitor]	3%	-6.3%	1%[15.4 µM]	0.6
COc1ccc(-n2c(C)nn(CCOc3ccccc3)c2=O)cc1
 : -3.1	-0.3%	-17%[15.4 µM]	13%	·	-19%	-6.3
Cc1cc(NC(=O)CSCC(=O)NCc2cccc(C(F)(F)F)c2)no1
 : -7.8	0.6%	-32%	·	0.3%	6%	·
COc1ccc(NC(=O)C(c2ccc(C)cc2)N(C)C(=O)CNC(C)=O)cc1 (configuration not stated)
 : 0.6	-2.0%	?	11%	-2.1%	8%	2.5
Nc1nc2n[nH]nc2c(=O)[nH]1
 : 6.7	1.1%	-29%	-11%	-4.4%&-3.3%	-5%	-0.9[24.8 µM]
COc1ccc(-c2csc(N(CCCN(C)C)C(=O)c3ccc(Br)cc3)n2)cc1
 : -2.0	2.6%	-2%[15.4 µM]	35µM*	0.4%	5%	-2.3
Cn1c(N)c(C(=O)COC(=O)CC(NC(N)=O)c2ccc(Cl)cc2)c(=O)n(C)c1=O (configuration not stated)
 : -1.7	0.8%	-4%[15.4 µM]	·	0.6%	13%	·
O=C(COC(=O)CSCC(=O)N1CCCCC1)Nc1ccc(Cl)cc1
 : 2.5	-0.3%[38.3 µM]	-1%	12%	-0.8%	3%	1.9
COCCNc1oc(-c2cccs2)nc1S(=O)(=O)c1ccc(C)cc1
 : -1.7	1.4%	-13%[15.4 µM]	-21%	1.4%	-2%	3.4
CCCCC(=O)Nc1ccc(C(=O)NNC(=S)NC(=O)c2ccccc2[N+](=O)[O-])cc1
 : -0.8	0.4%	10%[15.4 µM]	35µM*	·	-3%	-2.4
Cc1ccc(C(=O)NCC(=O)Nc2ccc3c(c2)CCC3)cc1C
 : -2.2	15%	-16%[15.4 µM]	·	·	3%	·
CC(=O)Nc1cccc(C(=O)OCC(=O)NC(=O)c2ccccc2)c1
 : -2.4	4.8%	-4%[15.4 µM]	·	·	17%	·
NC(=Nc1nc(-c2ccccn2)cc2ccccc12)c1ccccn1
 : -11	-0.5%	6%	·	0.9%	-7%	·
CC1(C(=O)NCc2ccco2)Cc2c(-c3ccc(C(N)=O)cc3)ccnc2O1 (configuration not stated)
 : 3.7	6.8%	·	·	-9.2%	·	·
O=C(NNc1cc(Cl)ccc1Cl)C1CCC1
 : -0.2	1.4%	3%[15.4 µM]	14%	0.2%	13%	2.3
C[C@H](NC(=O)c1ncn2c1c(=O)[nH]c1ccc(Br)cc12)c1ccccc1
 : -2.2	9.5%	?	·	-8.6%	·	·
CCC(=O)N1CCc2cc(Br)cc(S(=O)(=O)NC3CCN(Cc4ccccc4)CC3)c21
 : 0.8	-1.9%	-10%[15.4 µM]	1%	0.9%	-32%	-6.7
Cc1ccc(C(=O)NCCc2csc(C)n2)cc1
 : -7.1	0.6%	-24%	3%	-0.7%	8%	-0.7
CNC[C@H]1Oc2c(NS(=O)(=O)c3cccs3)cccc2C(=O)N([C@H](C)CO)C[C@@H]1C
 : -2.5	1.5%	·	·	-2.8%	4%	·
CC(c1ccccc1)C1CC(=O)N(CC(=O)O)C1=O (configuration not stated)
 : -0.1	2.9%[38.3 µM]	14%	13%	-2.6%	1%	0.3
COc1cccc(NC(=O)CN(C)C(=O)CNC(=O)c2ccc(Oc3ccccc3)cc2)c1
 : -1.2	2.2%	2%[15.4 µM]	·	2.8%	-14%	·
COC(=O)c1cc(C#N)c(NCc2ccccc2)nc1C
 : -2.2	6.7%	16%	-3%	32µM*	7%	6.1
CCC(C)NC(=O)CSc1nnc(-c2cc(-c3cccs3)nc3ccccc23)o1 (configuration not stated)
 : 0.5	10%	14%	8%	25µM*	?	7.1
COc1cccc2c1OCC/C2=N\NC(=O)COc1ccccc1C
 : 0.1	10%	3%	-11%	-6.4%	6%	4.0
O=C(NCc1ccccn1)C(=O)NCC(c1ccco1)N1CCN(c2ccc(F)cc2)CC1 (configuration not stated)
 : 3.3	-0.3%	-3%	-8%	0.1%	7%	-1.3
CCOc1ccc(-n2c(SC(C)C(=O)OC)nc3c(c2=O)SCC3)cc1 (configuration not stated)
 : 5.1	·	-34%[inhibitor]	·	0.8%	-10%	·
Cc1ccc(SCC(=O)Nc2nncs2)cc1
 : -0.6	-0.2%	-17%	·	3.4%	2%	·
CCc1nccn1S(=O)(=O)c1ccccc1[N+](=O)[O-]
 : -3.1	0.5%	18%	11%	-0.1%	2%	-3.9
COc1cc(CNCc2ccc(C(=O)O)cc2)ccc1OCc1ccc(F)cc1
 : -3.4	-0.5%	-67%[inhibitor]	-2%	-3.3%	1%	6.3
Cc1cc(C)c2nc(N3CCC(C(=O)NCCCN4CCCC4=O)CC3)sc2c1
 : -4.2	0.0%	10%	12%	-1.4%	4%	-0.9
C=CCn1c(SCc2csc(-c3ccc(Cl)cc3)n2)nnc1-c1ccccc1OC
 : 0.3	1.5%	18%	-15%	?	?	0.3
O=C(NC1CCCCC1)C(c1ccc2ncccc2c1)N(Cc1ccccc1)C(=O)c1cccs1 (configuration not stated)
 : 6.1	·	?	-2%	-0.1%	?	0.0
Cc1ccsc1C(=O)N/N=C/c1ccc2c(c1)OCO2
 : -0.2	3.2%	1%	14%	-1.4%	9%	6.5
COc1cc(C)c(C)cc1S(=O)(=O)n1c(C)nc2ccccc21
 : 1.0	1.2%	-35%[inhibitor]	3%	·	0%	-3.2
O=C(NNC1=NCCCCC1)Nc1ccc(Cl)cc1
 : -2.4	-2.4%	-8%[15.4 µM]	5%	·	8%	5.2
CC(C)(C)c1ccc(/C=C/C(=O)Nc2ncccn2)cc1
 : -2.4	-0.8%	-53%[inhibitor]	-10%	1.3%	-1%	7.0
CC1CCc2sc3nc(N4CCN(CCO)CC4)n4ncnc4c3c2C1 (configuration not stated)
 : 1.7	0.5%	?	-19%	-2.3%	-1%	3.7
c1ccc(CCc2nc(-c3ccc(-n4cccc4)cc3)no2)cc1
 : -2.1	1.5%	?	0%	?	-1%	0.3
O=C(CSc1nnc(-c2ccccc2)n1-c1ccccc1)c1cccs1
 : -0.3	8.2%	14%	-13%	-2.5%	-14%	1.4
C=CCNC(=S)/N=c1/ccccn1CCC
 : -6.5	1.2%	33%	5%	23%	12%	2.4
Cc1cc(C)nc(NS(=O)(=O)c2ccc(NC(=O)COc3ccccc3F)cc2)n1
 : -1.3	1.7%	-15%	·	-0.6%	-18%	·
CCOC(=O)Nc1ccc(OC(=O)Oc2ccc(NC(=O)OCC)cc2)cc1
 : -0.2	1.7%	-12%	·	1.4%	-4%	·
CCNc1nc(NC(C)C)nc(NS(=O)(=O)c2ccc(C)cc2)n1
 : 1.2	-0.4%	?	13%	-0.9%	6%	2.4
O=C1C=C(N(CCO)CCO)C2(CCCCC2)O1
 : -1.6	28%[38.3 µM]	-4%	6%	-0.1%	9%	0.6
COC(=O)[C@]1(C)N[C@H](CN(C)C(=O)c2ccccc2)[C@@H]2C(=O)N(C)C(=O)[C@@H]21
 : 0.4	1.2%	·	·	-2.2%	6%	·
O=C(CN(C(=O)c1csnn1)c1ccccc1Cl)NC1CCCCC1
 : -0.7	0.0%	23%[15.4 µM]	4%	·	-27%	0.0
COc1cc(C2C3=C(CCCC3=O)Nc3[nH]n(-c4ccccc4)c(=O)c32)ccc1O (configuration not stated)
 : -5.3	3.1%[38.3 µM]	-26%	?	0.0%	-9%	1.6
Cc1cc(C)c(S(C)(=O)=O)c(S(=O)(=O)c2ccc(Cl)cc2)n1
 : -4.4	-0.5%	-6%	14%	-0.3%	-2%	-6.6
O=C(NC1CCOC1=O)c1ccccc1 (configuration not stated)
 : 1.2	3.8%	-13%	·	·	6%	·
